Screening data (PubChem)
rRNA inh HTS: inhibits bacterial ribosomal RNA function over humanized ribosomes | E. coli WT GFP vs humanized-ribosome RFP mutants, fluorescence, 24 h; hits give low values; DMSO median 0, no signal -100 | GFP signal change (wild-type ribosome), % (concentration not given with the values) | 350,000 compounds, 1.6% hits;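 active means significant combined selectivity score with lowered wild-type GFP, culture density cut under 30%, mutant RFP and density less affected; inactive means any of these conditions unmet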; further: one replicate is shown; some compounds called inactive have numbers as strong as hits
FGF22 binding: shifts melting point of recombinant human FGF22; Q9HCT0; recombinant FGF22 thermal shift, SYPRO orange fluorescence; percent of sucrose octasulfate shift, DMSO zero; calls only at 9.99 µM; 340,000 compounds, 1.5% hits; AID 651658;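 active means melting point raised past a set limit in the mean and every replicate; three in four hits are not shown here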
Target sequence (Q9HCT0 whole entry, looked up): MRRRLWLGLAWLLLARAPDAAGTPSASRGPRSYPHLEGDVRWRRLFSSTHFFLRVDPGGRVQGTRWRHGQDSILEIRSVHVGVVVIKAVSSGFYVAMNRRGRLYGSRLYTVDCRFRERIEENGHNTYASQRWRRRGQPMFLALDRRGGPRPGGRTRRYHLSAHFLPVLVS
rRNA inh HTS OD600: recorded beside rRNA inh HTS, whose call it bears; OD600 change, %; measured here: OD600 growth;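 optical density of the mix in the first replicate; 0 = DMSO median and -100 = no signal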
rRNA inh HTS RFP: also measured in rRNA inh HTS; calls as there; RFP signal change, %; measured here: RFP humanized mutant strains;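 first replicate; 0 = DMSO median and -100 = no signal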
* marks the source's active call; other numbers are inactive results. Some of the compounds tested, so the mix of outcomes need not match the whole.

Results for C[C@H](CO)N1C[C@H](C)[C@@H](CN(C)S(=O)(=O)c2ccccc2)Oc2c(NS(=O)(=O)c3ccc(Cl)cc3)cccc2C1=O ?
rRNA inh HTS: -5; FGF22 binding: inactive; rRNA inh HTS OD600: -2; rRNA inh HTS RFP: 1.7

How did O=C(C[C@@H]1CC[C@H]2[C@@H](COC[C@H](O)CN2C(=O)Nc2ccccc2)O1)NCc1ccccc1F do in these assays?
rRNA inh HTS: 4; FGF22 binding: inactive; rRNA inh HTS OD600: -2; rRNA inh HTS RFP: 0.3

Results for COCC(=O)N1C[C@H](C)[C@H](OC)CN(C)C(=O)c2ccc(NC(=O)C3CCC3)cc2OC[C@H]1C ?
rRNA inh HTS: 2; FGF22 binding: inactive; rRNA inh HTS OD600: 1; rRNA inh HTS RFP: -0.3

How did O=C(Nc1cccc(Cl)c1)N[C@H]1CC[C@@H](CCNC(=O)C2CCOCC2)O[C@H]1CO do in these assays?
rRNA inh HTS: -2; FGF22 binding: inactive; rRNA inh HTS OD600: 1; rRNA inh HTS RFP: 4.9

How did CN(C)C(=O)[C@H]1[C@H](CO)[C@H]2Cn3c(ccc(-c4cncnc4)c3=O)[C@H]2N1Cc1cc(F)ccc1F do in these assays?
rRNA inh HTS: 2; FGF22 binding: inactive; rRNA inh HTS OD600: 3; rRNA inh HTS RFP: -0.4

What do the screens show for `O=C(C1CCC1)N1CC(=O)N2[C@H](CO)[C@H](c3ccc(Br)cc3)[C@@H]2C1`?
rRNA inh HTS: 1; FGF22 binding: inactive; rRNA inh HTS OD600: -2; rRNA inh HTS RFP: 0.2

What do the screens show for `CC(C)NC(=O)Nc1cccc2c1O[C@H](CN(C)Cc1ccc(C(F)(F)F)cc1)[C@H](C)CN([C@@H](C)CO)C2=O`?
rRNA inh HTS: 3; FGF22 binding: inactive; rRNA inh HTS OD600: -7; rRNA inh HTS RFP: 1.0

Results for C[C@@H]1CN([C@H](C)CO)C(=O)c2cccc(NC(=O)Nc3ccc(F)cc3)c2O[C@H]1CN(C)Cc1ccccc1 ?
rRNA inh HTS: -4; FGF22 binding: inactive; rRNA inh HTS OD600: -6; rRNA inh HTS RFP: 0.5

How did C[C@H]1CN([C@@H](C)CO)C(=O)Cc2cc(NS(=O)(=O)c3ccccc3)ccc2O[C@@H]1CN(C)C(=O)Nc1ccc(F)cc1 do in these assays?
rRNA inh HTS: 0; FGF22 binding: inactive; rRNA inh HTS OD600: 4; rRNA inh HTS RFP: -0.5

What do the screens show for `CC(C)[C@@H](C)NC(=O)N(C)C[C@H]1OCc2ccccc2-c2ccccc2C(=O)N([C@@H](C)CO)C[C@@H]1C`?
rRNA inh HTS: 3; FGF22 binding: inactive; rRNA inh HTS OD600: 5; rRNA inh HTS RFP: -2.2

What do the screens show for `COCC#Cc1cnc2c(c1)C(=O)N([C@H](C)CO)C[C@H](C)[C@H](CN(C)C(=O)Nc1c(C)noc1C)O2`?
rRNA inh HTS: 2; FGF22 binding: inactive; rRNA inh HTS OD600: 2; rRNA inh HTS RFP: -0.7

Results for CCCCc1c(-c2ccccc2OC)ncn1Cc1ccc(Br)cc1 ?
rRNA inh HTS: -28; FGF22 binding: inactive; rRNA inh HTS OD600: -45; rRNA inh HTS RFP: -3.7

How did COc1ccc(NC(=O)Nc2cccc3c2O[C@H](CN(C)Cc2ccc(C(=O)Nc4ccccc4N)cc2)[C@H](C)CN([C@@H](C)CO)C3=O)cc1 do in these assays?
rRNA inh HTS: 0; FGF22 binding: inactive; rRNA inh HTS OD600: -6; rRNA inh HTS RFP: -1.4

Results for O=C(c1cccc(F)c1)N1CCCCN2[C@H](C1)[C@@H](c1ccc(-c3ccncc3)cc1)[C@@H]2CO ?
rRNA inh HTS: -6; FGF22 binding: inactive; rRNA inh HTS OD600: -8; rRNA inh HTS RFP: -0.5

How did COc1ccc(C#Cc2ccc([C@@H]3[C@@H](CO)N4CCCCN(C(=O)c5ccncc5)C[C@@H]34)cc2)cc1 do in these assays?
rRNA inh HTS: -1; FGF22 binding: inactive; rRNA inh HTS OD600: -9; rRNA inh HTS RFP: 25

Results for C[C@H](CO)N1C[C@H](C)[C@@H](CN(C)Cc2ccc(C(=O)O)cc2)Oc2ccc(NC(=O)CCN3CCOCC3)cc2CC1=O ?
rRNA inh HTS: 3; FGF22 binding: inactive; rRNA inh HTS OD600: 8; rRNA inh HTS RFP: -1.9

What do the screens show for `C[C@@H]1CN([C@H](C)CO)S(=O)(=O)c2ccc(Br)cc2O[C@H]1CN(C)Cc1ccccc1`?
rRNA inh HTS: -57; FGF22 binding: inactive; rRNA inh HTS OD600: -74; rRNA inh HTS RFP: -16

What do the screens show for `O=C(C[C@H]1CC[C@@H]2[C@H](COC[C@H](O)CN2C(=O)Nc2ccc(Cl)cc2)O1)NCC1CC1`?
rRNA inh HTS: -24*; FGF22 binding: inactive; rRNA inh HTS OD600: -18*; rRNA inh HTS RFP: 1.1*

What do the screens show for `COCC(=O)N(C)C[C@H]1Oc2ncc(-c3ccc(C#N)cc3)cc2C(=O)N([C@H](C)CO)C[C@H]1C`?
rRNA inh HTS: 0; FGF22 binding: inactive; rRNA inh HTS OD600: 8; rRNA inh HTS RFP: -1.9

Results for COCC(=O)N(C)C[C@H]1Oc2cc(C3=CCCCC3)ccc2S(=O)(=O)N([C@H](C)CO)C[C@H]1C ?
rRNA inh HTS: -1; FGF22 binding: inactive; rRNA inh HTS OD600: 4; rRNA inh HTS RFP: -1.4

Seven entries from above, arranged by molar mass, ascending:
Results for CCCCc1c(-c2ccccc2OC)ncn1Cc1ccc(Br)cc1 ?
rRNA inh HTS: -28; FGF22 binding: inactive; rRNA inh HTS OD600: -45; rRNA inh HTS RFP: -3.7

Results for O=C(c1cccc(F)c1)N1CCCCN2[C@H](C1)[C@@H](c1ccc(-c3ccncc3)cc1)[C@@H]2CO ?
rRNA inh HTS: -6; FGF22 binding: inactive; rRNA inh HTS OD600: -8; rRNA inh HTS RFP: -0.5

What do the screens show for `O=C(C[C@H]1CC[C@@H]2[C@H](COC[C@H](O)CN2C(=O)Nc2ccc(Cl)cc2)O1)NCC1CC1`?
rRNA inh HTS: -24*; FGF22 binding: inactive; rRNA inh HTS OD600: -18*; rRNA inh HTS RFP: 1.1*

What do the screens show for `COCC(=O)N(C)C[C@H]1Oc2ncc(-c3ccc(C#N)cc3)cc2C(=O)N([C@H](C)CO)C[C@H]1C`?
rRNA inh HTS: 0; FGF22 binding: inactive; rRNA inh HTS OD600: 8; rRNA inh HTS RFP: -1.9

Results for COCC(=O)N(C)C[C@H]1Oc2cc(C3=CCCCC3)ccc2S(=O)(=O)N([C@H](C)CO)C[C@H]1C ?
rRNA inh HTS: -1; FGF22 binding: inactive; rRNA inh HTS OD600: 4; rRNA inh HTS RFP: -1.4

What do the screens show for `C[C@@H]1CN([C@H](C)CO)S(=O)(=O)c2ccc(Br)cc2O[C@H]1CN(C)Cc1ccccc1`?
rRNA inh HTS: -57; FGF22 binding: inactive; rRNA inh HTS OD600: -74; rRNA inh HTS RFP: -16

What do the screens show for `COCC#Cc1cnc2c(c1)C(=O)N([C@H](C)CO)C[C@H](C)[C@H](CN(C)C(=O)Nc1c(C)noc1C)O2`?
rRNA inh HTS: 2; FGF22 binding: inactive; rRNA inh HTS OD600: 2; rRNA inh HTS RFP: -0.7

More structures.
How did Cc1noc(C)c1NC(=O)N(C)C[C@H]1Oc2c(NC(=O)NC3CCCCC3)cccc2C(=O)N([C@@H](C)CO)C[C@@H]1C do in these assays?
rRNA inh HTS: 3; FGF22 binding: inactive; rRNA inh HTS OD600: 5; rRNA inh HTS RFP: 0.9

Results for C[C@H]1CCCCO[C@H](CN(C)S(=O)(=O)c2cn(C)cn2)[C@@H](C)CN([C@@H](C)CO)C(=O)c2cc(NC(=O)CCCN(C)C)ccc2O1 ?
rRNA inh HTS: 2; FGF22 binding: inactive; rRNA inh HTS OD600: 6; rRNA inh HTS RFP: -3.2

Results for Cc1noc(C)c1NC(=O)Nc1cccc2c1O[C@@H](CN(C)S(=O)(=O)c1cn(C)cn1)[C@H](C)CN([C@@H](C)CO)C2=O ?
rRNA inh HTS: -4; FGF22 binding: inactive; rRNA inh HTS OD600: 2; rRNA inh HTS RFP: 0.5

How did CN1c2ccc(Br)cc2[C@@H]2[C@@H](CCN2C(=O)c2ccc(F)cc2)[C@@H]1CO do in these assays?
rRNA inh HTS: -15; FGF22 binding: inactive; rRNA inh HTS OD600: -22; rRNA inh HTS RFP: 0.7

What do the screens show for `CCC(=O)N(C)C[C@H]1Oc2cc(-c3ccccc3F)ccc2S(=O)(=O)N([C@@H](C)CO)C[C@@H]1C`?
rRNA inh HTS: -6; FGF22 binding: inactive; rRNA inh HTS OD600: -16; rRNA inh HTS RFP: -0.7

What do the screens show for `C[C@H](CO)N1C[C@H](C)[C@H](CN(C)CC2CCOCC2)Oc2ncc(-c3ccc(C#N)cc3)cc2C1=O`?
rRNA inh HTS: 3; FGF22 binding: inactive; rRNA inh HTS OD600: 6; rRNA inh HTS RFP: -4.0

What do the screens show for `CC(C)OC(=O)[C@@H](Cc1ccccc1)N[C@H](/C=C/c1ccccc1)[C@@H](O)Cc1ccccc1`?
rRNA inh HTS: 17; FGF22 binding: inactive; rRNA inh HTS OD600: 28; rRNA inh HTS RFP: 2.1

What do the screens show for `CCC(=O)Nc1ccc2c(c1)C(=O)N(C)[C@@H]1CC[C@H](CC(=O)NCCOC)O[C@H]1CO2`?
rRNA inh HTS: 1; FGF22 binding: inactive; rRNA inh HTS OD600: 1; rRNA inh HTS RFP: -3.0

Results for O=C(C[C@@H]1CC[C@@H]2[C@H](COC[C@H](O)CN2C(=O)Nc2ccccc2)O1)NCc1ccncn1 ?
rRNA inh HTS: 3; FGF22 binding: inactive; rRNA inh HTS OD600: 16; rRNA inh HTS RFP: 1.5

How did C[C@@H]1CN([C@@H](C)CO)C(=O)c2cccc(N(C)C)c2O[C@@H]1CN(C)CC1CC1 do in these assays?
rRNA inh HTS: 1; FGF22 binding: inactive; rRNA inh HTS OD600: 1; rRNA inh HTS RFP: -2.6

Results for Cc1noc(C)c1NC(=O)Nc1ccc2c(c1)C(=O)N([C@H](C)CO)C[C@@H](C)[C@@H](CN(C)S(C)(=O)=O)O2 ?
rRNA inh HTS: 0; FGF22 binding: inactive; rRNA inh HTS OD600: 6; rRNA inh HTS RFP: -0.8

How did C[C@H](CO)N1C[C@H](C)[C@@H](CN(C)C(=O)NC2CCCCC2)Oc2ccc(NC(=O)Nc3ccc(F)cc3)cc2CC1=O do in these assays?
rRNA inh HTS: -1; FGF22 binding: inactive; rRNA inh HTS OD600: -6; rRNA inh HTS RFP: -1.2

Results for C[C@H](CO)N1C[C@H](C)[C@@H](CN(C)C(=O)Nc2ccccc2F)Oc2cc(-c3cccc(C#N)c3)ccc2S1(=O)=O ?
rRNA inh HTS: -7; FGF22 binding: inactive; rRNA inh HTS OD600: -15; rRNA inh HTS RFP: -3.0

What do the screens show for `C[C@H](CO)N1C[C@H](C)[C@@H](CN(C)C(=O)[C@@H](Cc2ccccc2)N(C)C)OCc2ccccc2-c2ccccc2C1=O`?
rRNA inh HTS: -1; FGF22 binding: inactive; rRNA inh HTS OD600: 5; rRNA inh HTS RFP: -0.1

How did COC(=O)C[C@H]1CC[C@H]2[C@@H](COc3ccc(NC(=O)Nc4c(C)noc4C)cc3C(=O)N2C)O1 do in these assays?
rRNA inh HTS: 3; FGF22 binding: inactive; rRNA inh HTS OD600: 3; rRNA inh HTS RFP: 1.6

What do the screens show for `COc1ccc(NC(=O)N(C)C[C@@H]2Oc3c(NS(=O)(=O)c4c(C)noc4C)cccc3C(=O)N([C@H](C)CO)C[C@@H]2C)cc1`?
rRNA inh HTS: -3; FGF22 binding: inactive; rRNA inh HTS OD600: -1; rRNA inh HTS RFP: -1.5

How did C[C@H]1CN([C@@H](C)CO)C(=O)c2cc(/C=C/c3ccccc3)cnc2O[C@H]1CN(C)S(=O)(=O)c1cccs1 do in these assays?
rRNA inh HTS: -9; FGF22 binding: inactive; rRNA inh HTS OD600: 9; rRNA inh HTS RFP: -3.7

Results for C[C@H]1CCCCO[C@H](CN(C)C(=O)Cc2ccccc2)[C@@H](C)CN([C@@H](C)CO)C(=O)c2cc(NC(=O)CCCN(C)C)ccc2O1 ?
rRNA inh HTS: -1; FGF22 binding: inactive; rRNA inh HTS OD600: 1; rRNA inh HTS RFP: 1.8

How did CC(C)NC(=O)Nc1ccc2c(c1)C(=O)N([C@H](C)CO)C[C@@H](C)[C@H](CN(C)Cc1ccncc1)O2 do in these assays?
rRNA inh HTS: 5; FGF22 binding: inactive; rRNA inh HTS OD600: 12; rRNA inh HTS RFP: 4.4

Results for COc1cccc(S(=O)(=O)N2CC[C@@H]3[C@H]2c2cc(C#Cc4ccccc4)ccc2N[C@@H]3CO)c1 ?
rRNA inh HTS: 6; FGF22 binding: inactive; rRNA inh HTS OD600: 20; rRNA inh HTS RFP: -1.1

What do the screens show for `COc1ccc(S(=O)(=O)N(C)C[C@H]2Oc3ccc(NS(=O)(=O)c4ccccc4)cc3CC(=O)N([C@@H](C)CO)C[C@@H]2C)cc1`?
rRNA inh HTS: -4; FGF22 binding: inactive; rRNA inh HTS OD600: 3; rRNA inh HTS RFP: -4.2

How did C[C@@H]1CN([C@H](C)CO)C(=O)c2cc(-c3ccc(C#N)cc3)cnc2O[C@@H]1CN(C)C(=O)CC1CC1 do in these assays?
rRNA inh HTS: 4; FGF22 binding: inactive; rRNA inh HTS OD600: 5; rRNA inh HTS RFP: 1.9
